Source: PubChem BioAssay
A1 inh: inhibitors of the anti-apoptotic protein A1, read as caspase activation; caspase activation, % (no concentration beside the values); actives 0.066% (n = 330,000); AID 2462; MEF A1-2A-BIM cells, Caspase-Glo 3/7 luminescence, 3 h; percent of clofoctol response, vehicle zero;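 active means over half of replicate activation scores above 10%, or exactly half above 10 with the replicate mean above 10; inconclusive means replicate mean below 10 yet half the replicates above 10; inactive means over half of replicates below 10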;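 further: wells of about 30 µL received 50 nL stock; many hits fall short of the cut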
LANA-H2A inh: blocks KSHV LANA binding to histone H2A/H2B | Q9QR71 | cell-free LANA-H2A/H2B peptide, fluorescence polarization | inhibition, % (test concentration not listed) | actives 0.6% (n = 320,000) | AID 2629; in the data active means inhibition mostly above about 10%, no sharp cut-off; inactive means mostly below about 6.7%;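 further: stock transfer was 7.5 nL into about 10 µL; 0% = median of vehicle wells and 100% = median of positive control wells; one replicate is shown; the record names a cut of 25% in any replicate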
Vif TR-FRET: HIV-1 Vif–A3G interaction blockers – biochemical, TR-FRET, GST-Vif 1-94, biotin-A3G peptide, dose response retest, primary screen (AID 1117319); TR-FRET GST-Vif / biotin-A3G peptide binding; higher % means a stronger effect; test concentration not given here; strong numbers were not always called active; inhibition, %; hits with a dose series show IC50 in µM; actives 0.57% (n = 260,000);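 active means above the screen mean plus three standard deviations and confirmed in dose response; inconclusive means results disagree or hit not tested in dose response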;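 further: Vif residues 1-94 fused to GST binding biotinylated APOBEC3G peptide 110-148; 0% = full assay without inhibitor and 100% = GST in place of GST-Vif; retest series ran down from 100 µM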
UCH37 DUB inh: blocks the human deubiquitinase UCH37; AID 588478; inhibition, % (concentration not given with the values); purified proteasome/UCH37, Ub-AMC cleavage fluorescence; actives 0.33% (n = 330,000);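 active means mean of two replicates above 20%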;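 further: 0% = compound-free wells with enzyme and 100% = wells lacking proteasome; stock transfer was 100 nL into about 20 µL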
Target sequence (Q9Y5K5 whole entry, looked up): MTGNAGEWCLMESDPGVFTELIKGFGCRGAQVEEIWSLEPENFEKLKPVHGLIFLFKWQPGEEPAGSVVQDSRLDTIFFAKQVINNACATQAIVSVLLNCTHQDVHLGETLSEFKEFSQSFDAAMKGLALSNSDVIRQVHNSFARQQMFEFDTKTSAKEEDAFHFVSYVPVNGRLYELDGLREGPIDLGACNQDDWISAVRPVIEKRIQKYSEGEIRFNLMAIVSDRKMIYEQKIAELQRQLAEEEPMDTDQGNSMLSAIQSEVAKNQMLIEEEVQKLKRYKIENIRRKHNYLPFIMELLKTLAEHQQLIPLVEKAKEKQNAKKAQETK
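assay system = human UCH37 enzyme supplied as purified proteasome complex | amount = proteasome at 0.15 nM in the dispensed enzyme solution | schedule = 30 min compound-proteasome preincubation then 25 min substrate reaction, room temperature | measured by = fluorescence, ex 355 nm, em 460 nm | benchmarks = no-proteasome wells (full inhibition) and compound-free wells (no inhibition)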
E coli growth: E. coli growth inhibition. Escherichia coli growth, OD600, 23 h; hits give low values. OD600 absorbance (concentration not given with the values). AID 1053175. actives 0.21% (n = 330,000);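 active means OD600 absorbance below the run mean of sample wells minus 3.6 SD, in any replicate, cut at about 0.56 in these data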;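 further: stock transfer was 300 nL into about 60 µL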
HNF4A DNA FP: change in binding of human HNF4 alpha to DNA; activity change, % at 10 µM; HNF4a-FITC DNA binding, fluorescence polarization, 1 h; actives 0.3% (n = 360,000); AID 1224865; P41235; in the data active means activity change above about 30%, passing the limit was not always enough;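 further: controls were the assay level and a saturating level of protein; the project sought stronger binding though the title names inhibitors; some compounds called inactive have numbers as strong as hits; positive values seem to mean higher polarization but the record does not say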
B2AR ag: human beta-2 adrenergic receptor agonism by FAP; response, % (no concentration beside the values); actives 0.43% (n = 340,000); Am2.2-beta2AR cells, FAP receptor internalization, flow cytometry; reference of the scale not given here; P07550;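 active means response above a set limit, near 3 SD of response in nonfluorescent compounds, cut at about 42% in these data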;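 further: stock transfer was 100 nL into about 11 µL; a reference agonist was the positive control; negative values mostly stem from fluorescent compounds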
Target sequence (P07550 whole entry, looked up): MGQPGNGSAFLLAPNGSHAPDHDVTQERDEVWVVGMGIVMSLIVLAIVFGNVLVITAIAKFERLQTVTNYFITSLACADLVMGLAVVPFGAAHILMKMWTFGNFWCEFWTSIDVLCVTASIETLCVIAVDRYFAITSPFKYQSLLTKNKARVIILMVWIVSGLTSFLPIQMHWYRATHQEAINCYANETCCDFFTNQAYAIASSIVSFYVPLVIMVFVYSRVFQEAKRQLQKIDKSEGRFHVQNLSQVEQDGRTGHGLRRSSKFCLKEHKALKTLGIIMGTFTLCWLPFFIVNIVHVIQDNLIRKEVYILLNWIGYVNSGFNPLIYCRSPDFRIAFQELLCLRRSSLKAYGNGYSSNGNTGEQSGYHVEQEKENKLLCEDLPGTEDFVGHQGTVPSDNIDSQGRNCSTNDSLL
* marks the source's active call; other numbers are inactive results; ? = inconclusive; . = not tested or not shown.

SMILES | A1 inh | LANA-H2A inh | Vif TR-FRET | UCH37 DUB inh | E coli growth | HNF4A DNA FP | B2AR ag
O=C(NCc1n[nH]c(=S)n1-c1ccccc1)c1ccco1 | -0.1 | -0.4 | 10% | 1.8 | 0.72 | -1.2 | 15
O=C(O)c1cccc(NC(=S)NC(=O)c2cncc(Br)c2)c1 | -0.7 | -1.2 | . | 4.6 | 0.6 | 3.9 | 13
CS(=O)(=O)c1ccc(-c2cccc(NC(=O)c3ccco3)c2)nn1 | -0.3 | 2.3 | -5% | 0.2 | 0.63 | 0.4 | -4
COc1ccc(NC(=O)C(C)N(c2ccc(C)cc2)S(C)(=O)=O)c(OC)c1 (stereo not given) | 0.1 | -0.4 | 3% | 2.7 | 0.74 | 2.0 | -2
Cc1ccn2c(C(=O)N/N=C\c3ccc4c(c3)OCO4)c(C)nc2c1 | -0.1 | 0.6 | 23% | . | . | 2.2 | -4
CCOc1ccccc1NC(=O)Cn1nnc(-c2ccc(OCC)c(OCC)c2)n1 | -0.7 | 4.4 | -1% | 1.3 | 0.7 | -0.6 | -5
CC(C)Nc1nnc(SCC(=O)Nc2ccc(F)cc2)s1 | -0.5 | 5.7 | -2% | 2.5 | 0.64 | 2.3 | 10
CCSc1nc2ccccc2c(=O)n1-c1c(C)n(C)n(-c2ccccc2)c1=O | 1.3 | 2.1 | -2% | -3.6 | 0.69 | 2.0 | 6
CCOC(=O)C1CCN(C(=O)c2ccc(NS(=O)(=O)c3ccc(F)cc3C)cc2)CC1 | 1.0 | -1.8 | -4% | 4.9 | 0.69 | 4.2 | 14
CC(=O)Nc1ccc(NC(=O)Nc2cc(C)cc(C)c2)cc1 | -4.1 | -7.8 | -2% | 3.0 | 0.69 | 5.4 | -10
O=C(CSc1nnc(Cn2c(=O)sc3ccccc32)n1-c1ccccc1)Nc1nccs1 | 0.4 | 1.6 | -11% | 2.8 | 0.78 | 2.3 | -4
COc1cccc(N2CCN(S(=O)(=O)c3ccc4ccccc4c3)CC2)c1 | . | . | 6% | 3.0 | 0.69 | 2.6 | -5
O=C(c1cccs1)N1N=C(c2ccc(O)cc2)CC1c1ccccc1 (stereo not given) | 0.2 | -2.4 | 5% | -7.3 | 0.71 | -0.8 | -2
O=C(C1CC12CCCC2)N1CCC(CO)(Cc2ccccc2Cl)CC1 (stereo not given) | -0.5 | 19* | -2% | -0.2 | 0.75 | -1.1 | 7
CC(C)CN(C(=O)C1CCCCC1)C1CCS(=O)(=O)C1 (stereo not given) | -0.9 | -1.8 | -5% | -1.7 | 0.68 | -0.4 | 3

Overlap with the part before: 3 compounds, then new ones.
SMILES | A1 inh | LANA-H2A inh | Vif TR-FRET | UCH37 DUB inh | E coli growth | HNF4A DNA FP | B2AR ag
O=C(c1cccs1)N1N=C(c2ccc(O)cc2)CC1c1ccccc1 (stereo not given) | 0.2 | -2.4 | 5% | -7.3 | 0.71 | -0.8 | -2
O=C(C1CC12CCCC2)N1CCC(CO)(Cc2ccccc2Cl)CC1 (stereo not given) | -0.5 | 19* | -2% | -0.2 | 0.75 | -1.1 | 7
CC(C)CN(C(=O)C1CCCCC1)C1CCS(=O)(=O)C1 (stereo not given) | -0.9 | -1.8 | -5% | -1.7 | 0.68 | -0.4 | 3
NS(=O)(=O)c1ccc(NC(=O)COC(=O)CSc2n[nH]c(-c3ccccc3)n2)cc1 | 0.1 | 2.9 | 16% | 3.0 | 0.7 | -0.9 | 1
CC(=O)c1sc(C(C)(C)C)cc1NC(=O)CCC(=O)O | -1.2 | 2.8 | -3% | 3.9 | 0.69 | 4.1 | -1
Cc1ccccc1-n1ncc(C(C)NS(=O)(=O)c2ccccc2Cl)c1C (stereo not given) | -0.4 | 1.8 | 2% | 1.7 | 0.7 | 4.2 | 2
Cc1ccc(S(=O)(=O)Nc2ccc3c(c2)C(=O)NC3=O)cc1[N+](=O)[O-] | -0.5 | 0.2 | . | 8.6 | 0.69 | 4.0 | 1
CN1/C(=C/c2cc[n+](C)c3ccccc23)C=Cc2ccccc21 | . | . | ? | 8.8 | 0.34* | 10.0 | 2
CC(CNC(=O)c1ccccc1Cl)NC(=O)c1ccccc1Cl (stereo not given) | 0.5 | 2.6 | . | 2.2 | 0.64 | -1.9 | 3
CCOC(=O)N1CCN(C(=O)c2ccccc2N(Cc2ccccc2)S(=O)(=O)c2ccccc2)CC1 | -0.8 | -2.6 | . | 4.6 | 0.66 | 1.3 | -7
COCCNC(=O)c1ccc(C2SCC(=O)N2CCc2ccccc2)cc1 (stereo not given) | 0.4 | 14 | . | 3.3 | 0.7 | -2.7 | 2
COc1cc(NC(=O)c2ccc(NS(=O)(=O)c3c(C)noc3C)cc2)cc(OC)c1 | 2.6 | 2.9 | -6% | 1.2 | 0.69 | 1.6 | -1
Cc1ccc(OC(=O)NC2CCS(=O)(=O)C2)cc1C (stereo not given) | 0.0 | -0.5 | -1% | 5.6 | 0.75 | -4.0 | 10
CN(CCCNC(=O)CSc1cc(=O)n(C)c2ccc(Cl)cc12)Cc1ccccc1 | 0.4 | 0.0 | 1% | 0.0 | 0.68 | 3.0 | -23
COc1cc(/C=N/NC(=O)c2cccc(NC(=O)c3ccccc3Cl)c2)ccc1O | -0.5 | -5.5 | -4% | . | . | 2.0 | -2
Cc1cccc(OC(=O)c2ccc3nccnc3c2)c1 | 0.1 | -0.2 | 3% | 4.5 | 0.66 | 0.3 | 4
CN1C=CC=C/C1=C1\SC(=S)N(c2ccccc2)C1=O | -0.3 | 0.2 | 6% | 13 | 0.62 | 2.1 | -13
CCCCSCCCNC(=O)c1cn(CC)c2ccc(S(=O)(=O)N3CCOCC3)cc2c1=O | 0.3 | 0.2 | . | 2.0 | 0.68 | 0.9 | -14
CCNc1nc(NCC)nc(N/N=C/c2cc(OC)c(OC)c(OC)c2)n1 | -0.3 | 2.8 | -12% | . | . | -0.3 | -2
O=C(COC(=O)c1ccc(Cl)c(Cl)c1)Nc1cccnc1Cl | 0.8 | 6.5 | -10% | 4.3 | 0.7 | -1.0 | -1
COc1ccc(/C=C2\SC(=S)N(CCCC(=O)Nc3ccccc3C(=O)O)C2=O)cc1OC | 0.0 | 0.6 | . | 9.4 | 0.7 | 25 | 7
COc1ccc(OCC(=O)NNC(=O)c2cccc(C)c2)cc1 | -0.1 | -4.0 | -13% | 3.7 | 0.72 | -1.6 | 3
COc1ccc(C2N(C(C)=O)CCN2S(=O)(=O)c2ccc(C)cc2)cc1 (stereo not given) | 0.8 | -0.4 | 0% | 1.3 | 0.65 | 7.4 | 7
O=C1CCCc2c1cc(C(=O)NCCCN1CCOCC1)c(=O)n2-c1ccc(Cl)cc1 | 0.1 | 3.0 | 2% | -3.0 | 0.71 | 1.2 | 8
COc1ccc(NC(=O)CSc2nnc3ccc(-c4ccccn4)nn23)cc1OC | 0.2 | 6.9 | -1% | 2.4 | 0.67 | -4.2 | 1
NCCCC[C@@H]1NC(=O)[C@H](CCC(=O)O)NC(=O)c2cc([N+](=O)[O-])cc(I)c2NCC[C@@H](C(N)=O)NC1=O | -0.9 | 3.1 | -2% | 7.0 | . | 0.5 | 0
NC1=NC[C@H](Cc2ccccc2)N1CC1CCCCC1 | 0.0 | -2.2 | . | -2.4 | . | -0.8 | 0
O=C(CCc1ccc(S(=O)(=O)NCc2ccccc2)cc1)NCc1cccnc1 | -0.5 | 3.3 | -11% | 2.3 | 0.69 | 1.7 | -7
Clc1ccc(SCCCCn2ccnc2)cc1 | -0.1 | -4.9 | 3% | -2.8 | 0.69 | 1.1 | 0
Cc1ccc(S(=O)(=O)NCc2c(Cl)cccc2Oc2ccccc2)cc1 | -0.1 | -6.9 | 0% | 3.2 | 0.72 | -1.4 | -13
O=C(Cn1nnc(-c2ccccc2-n2cnnn2)n1)c1ccccc1 | -0.4 | -3.6 | 68% | 3.4 | 0.64 | 3.0 | -6
Cc1nc2ccccc2c2oc(C(=O)N3CCN(C(=O)c4ccco4)CC3)cc12 | 0.7 | 1.1 | 75% | 1.1 | 0.72 | 0.5 | -16
Cc1nn2c(-c3ccccc3)c(-c3ccccc3)nc2[nH]c1=O | 1.3 | 0.1 | 3% | -43 | 0.75 | -0.5 | 13
COC(=O)C(Cc1cnc(Cl)s1)(C(=O)OC)c1ccc([N+](=O)[O-])cc1 | 0.4 | 1.4 | 2% | 1.6 | 0.72 | 2.1 | 4
Cc1occc1-c1nnc(SCC(=O)Nc2ccc(F)cc2)n1C | 0.4 | 4.3 | . | 1.5 | 0.68 | -1.4 | 3
O=C(C[C@@H]1C/C=C/CCCC(=O)O[C@H](c2ccccc2)CNC1=O)N[C@H](CO)Cc1ccccc1 | 2.0 | 10* | . | 3.4 | . | -1.1 | -4
CCOc1ccccc1CN1CCN(Cc2csc(C(C)=O)c2)CC1CCO (stereo not given) | -0.3 | 3.0 | 4% | -1.6 | 0.68 | 1.9 | 0
CNC(=O)CSc1nnnn1-c1ccc2c(c1)OCCO2 | -0.5 | -0.8 | 23% | -0.1 | 0.65 | -0.5 | -5
COc1ccc(NC(=O)Cn2nnc(C(=O)NCc3cccs3)c2N)cc1OC | -0.7 | -1.9 | 9% | 1.7 | 0.68 | -0.5 | 16
CCOC(=O)C(/C(N)=N/C(=O)Nc1ccccc1)=C(\C)O | 0.7 | 1.9 | 0% | 1.7 | 0.67 | 2.5 | 8
CCCCn1c(CCNC(=O)c2ccco2)nc2ccccc21 | 1.2 | 0.6 | . | 2.6 | 0.68 | -1.7 | -20
CCCc1nc(NCc2ccccc2)c(C#N)c2c1CCCC2 | -0.4 | -2.6 | -9% | -58 | 0.73 | -0.9 | -5
COc1ccc(C(=O)N/N=C/c2cc3ccccc3[nH]c2=O)cc1 | 0.6 | 2.4 | . | . | . | -0.4 | -6
Cc1ccc(/C=C2/SC(=S)N(c3ccc(S(=O)(=O)Nc4nccs4)cc3)C2=O)cc1 | -1.2 | -0.2 | -2% | 3.4 | 0.73 | -0.9 | 11
Cc1nn(Cc2ccccc2Cl)c(C)c1NC(=O)c1nc2ncccn2n1 | 0.8 | 0.3 | 17% | -3.0 | 0.71 | -1.7 | -4
O=c1c2ccccc2oc2nc3n(c(=O)c12)CCCS3 | -1.0 | -0.3 | 2% | -13 | 0.68 | -0.1 | 2
O=C(CN1CCN(c2ccc(O)cc2)CC1)Nc1cc([N+](=O)[O-])ccc1Cl | 0.0 | 1.5 | 32% | 4.9 | 0.71 | 2.3 | 1
COc1ccccc1CNC(=O)N1CCN(S(=O)(=O)c2ccccc2)CC1 | 0.5 | 6.2 | -1% | 4.9 | 0.66 | 2.0 | 1
COc1ccccc1NC(=O)C1=C(C)NC(=O)NC1c1ccco1 (stereo not given) | 0.0 | 0.4 | 0% | 6.6 | 0.7 | 0.2 | 3
CCN(CC(=O)Nc1cc(Cl)ccc1C)C(=O)Cc1sc(C)nc1-c1ccc(F)cc1 | -0.2 | -3.1 | 2% | 0.0 | 0.66 | 2.7 | 1
O=[N+]([O-])c1ccc(Cl)c(S(=O)(=O)n2ccnc2)c1 | 0.1 | -6.1 | 1% | 2.0 | 0.73 | -2.0 | -1
Cc1ccc(SCC(=O)NCC2CCCO2)cc1 (stereo not given) | -0.4 | 1.4 | 5% | -2.0 | 0.7 | 0.0 | 4
Cc1ccnc(NS(=O)(=O)c2ccc(NC(=O)C(C)(C)C)cc2)n1 | 1.1 | -1.3 | 10% | 0.9 | 0.72 | -1.7 | -1
O=C(c1cn(-c2ccccc2)nc1-c1ccccc1)N1CCN(c2ccccn2)CC1 | -0.2 | 3.2 | -1% | 1.4 | 0.63 | 0.8 | -27
